PINK1 expr mod: PINK1 expression modulation; 410,000 tested, 0.2% active; Potency, µM (series often up to 76.6 µM), for inactives: top-dose activation (PINK1 increase), usual class: activators; PINK1 immunofluorescence, high-content cytometry, 24 h; active = well fitted activation curve with a large enough effect; inconclusive = small, poorly fitted or top-dose-only effect; inactive = flat fitted curve, though single readings scatter; cell line not stated here;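 also: potency is read from the fitted curve at half-maximal effect; % of control where 0% means no effect; nearly all actives have a fitted effect of over 65% in size; a mitochondrial uncoupler was the plate control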
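Measures PINK1 amount and localization on or inside mitochondria by immunofluorescence. Stable cells get compounds at 5 concentrations for 24 hours before fixation and staining; CCCP controls included.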
Sfp PPTase inh: Sfp phosphopantetheinyl transferase inhibition. Q9F4F7. Biochemical Sfp PPTase activity, qHTS. Potency, µM, for inactives: max response, negative = inhibition, most hits filed as inhibitors. 310,000 tested, 3.5% active. AID 1490; active = well fitted inhibition curve with a large enough effect; inconclusive = small, poorly fitted or top-dose-only effect, or another doubt; inactive = no such curve, though single readings can be large or run the other way;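 also: the enzyme is Sfp with the accession as filed and its product quenches rhodamine fluorescence; potency is read from the fitted curve at half-maximal effect; 0% = enzyme reaction without inhibitor and -100% = no enzyme wells; top concentration of the series not given in the record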
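Buffer: 50 mM Hepes-Na pH 7.6, 10 mM MgCl2, 0.01% Nonidet P-40, 0.01% BSA. Enzyme 15 nM, pre-exposed to compound 15 min; substrates then added and fluorescence change tracked over 30 min.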
D2 agonist: human D2 receptor agonism in beta-arrestin assay; P14416; DiscoveRx PathHunter D2 beta-arrestin, luminescence, 90 min; 100% = 57 uM dopamine signal; activation, % (concentration not given with the values); 360,000 tested, 0.084% active; AID 624465; in the data active = activation above about 40%; inconclusive = about 15% to 40%; inactive = below about 15%; also: compound concentration not given in the record; the text of the record calls up to 30% inactive
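Agonist mode: compounds alone added to overnight-plated D2 PathHunter cells for 90 min at 37 C, with 57 uM final dopamine (EC100) defining full response. Beta-arrestin recruitment detected by chemiluminescent reagent, read after 1 h at ambient temperature.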
TRPV1 potentiator: potentiators of human vanilloid receptor 1 (TRPV1); Q8NER1; TRPV1-expressing cells, Fluo-8 calcium influx, capsaicin EC20 potentiation; host cell line not named in the record; control for the full effect not named in the record; potentiation, % at 8.33 µM; 320,000 tested, 0.02% active; active means potentiation above 80%; inconclusive means 30% to 80%; inactive means below 30%; also: 0% is about no effect
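Fluo-8 calcium influx in TRPV1-expressing cells, kinetic read (ex 480/em 520 nm). Compound added and read 3 min for agonist activity, followed by capsaicin at EC20 final and 2 min further read for enhancement.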
Six1-Eya2 blk: Six1/Eya2 interaction inhibition; AlphaScreen GST-Six1/His-Eya2 binding, biochemical; hits give low values; control for the full effect not named in the record; activity change, % (test concentration not listed); 360,000 tested, 0.56% active; AID 651725; in the data active = activity change below about -65%; inconclusive = about -30% to -65%; inactive = above about -30%; also: % is scaled to controls: 0 for no effect and ±100 for the full control effect; compound concentration not given in the record
Target sequence (O00167 whole entry, looked up): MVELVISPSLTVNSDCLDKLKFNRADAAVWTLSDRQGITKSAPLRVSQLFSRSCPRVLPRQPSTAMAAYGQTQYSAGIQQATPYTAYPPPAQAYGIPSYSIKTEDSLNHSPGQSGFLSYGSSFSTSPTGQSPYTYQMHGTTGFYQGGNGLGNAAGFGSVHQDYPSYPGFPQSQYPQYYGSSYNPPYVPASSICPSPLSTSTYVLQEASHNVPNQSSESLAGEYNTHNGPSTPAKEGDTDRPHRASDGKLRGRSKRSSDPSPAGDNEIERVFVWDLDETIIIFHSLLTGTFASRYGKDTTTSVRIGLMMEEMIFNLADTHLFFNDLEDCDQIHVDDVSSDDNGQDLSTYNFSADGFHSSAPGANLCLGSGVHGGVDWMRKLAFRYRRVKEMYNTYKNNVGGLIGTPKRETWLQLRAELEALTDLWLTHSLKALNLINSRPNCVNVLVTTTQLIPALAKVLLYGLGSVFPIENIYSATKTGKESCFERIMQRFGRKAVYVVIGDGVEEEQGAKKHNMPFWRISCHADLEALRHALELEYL
Target sequence (Q15475 whole entry, looked up): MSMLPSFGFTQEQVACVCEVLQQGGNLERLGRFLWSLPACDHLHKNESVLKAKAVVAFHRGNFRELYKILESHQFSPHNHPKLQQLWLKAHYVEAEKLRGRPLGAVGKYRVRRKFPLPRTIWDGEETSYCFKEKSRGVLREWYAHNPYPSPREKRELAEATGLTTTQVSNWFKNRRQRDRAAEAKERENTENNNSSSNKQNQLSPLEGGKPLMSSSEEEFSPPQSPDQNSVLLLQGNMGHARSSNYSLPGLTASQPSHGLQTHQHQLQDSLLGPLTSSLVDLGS
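Compounds are tested against tagged Six1 and Eya2 proteins bridged by glutathione donor and nickel acceptor beads; after a one-hour incubation at 37 °C without light, AlphaScreen emission is recorded.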
CtBP-E1A inh: CtBP/E1A binding inhibition | AID 651724 | 340,000 tested, 0.49% active | activity change, % (no concentration beside the values) | AlphaScreen GST-E1A/His-CtBP binding, 1536-well; hits give low values; control for the full effect not named in the record; in the data active means activity change below about -65%; inconclusive means about -30% to -65%; inactive means above about -30%; also: % is scaled to controls: 0 for no effect and ±100 for the full control effect; compound concentration not given in the record
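GST-E1A and His-tagged CtBP (125 nM each as 5X stock) were preincubated with pin-transferred compound for 2 h at 37 °C in the dark, then glutathione donor and nickel acceptor beads were added for 1 h before AlphaScreen reading.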
D2 PAM: human D2 receptor positive allosteric modulation; AID 624464; DiscoveRx D2 beta-arrestin cells, luminescence, 90 min; 100% = 57 uM dopamine signal; potentiation, % (test concentration not listed); P14416; 360,000 tested, 0.23% active; active = potentiation of 50% or more; inconclusive = 30% to 50%; inactive = 30% or less;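 also: compound concentration not given in the record; tested on top of an EC20 dose of dopamine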
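PathHunter D2 cells, attached overnight at 37 deg C, received compound in DMSO plus dopamine at EC20 (50 nM final) for 90 min at 37 deg C. Beta-arrestin recruitment was read as luminescence after 1 h with detection reagent at ambient temperature.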
* hit, by the source's call; u = inconclusive; x = no result given; & = joins results of further samples; [ ] = another dose, or the depositor's remark.

canonical_smiles	PINK1 expr mod	Sfp PPTase inh	D2 agonist	TRPV1 potentiator	Six1-Eya2 blk	CtBP-E1A inh	D2 PAM
CC(OC(=O)CN1C(=O)NC2(CCCC2)C1=O)c1ccc(F)cc1 (centres undefined)	0.4%	x	-1.6	1.4	5.3	1.2	-0.8
OC(Cc1ccccc1Br)c1ncc(-c2ccc(Cl)cc2)[nH]1 (centres undefined)	2.7%	x	-3.3	x	-16.6	-17.4	-7.1
Cc1nn(-c2ccccc2)c2c1C(c1ccc(O)c(O)c1)N1C(=N2)C(Nc2ccccc2)=Nc2ccccc21 (centres undefined)	1.0%	8.7%	-0.5	-0.5	9.4	5.7	u
Cc1nc2ccccn2c1C(=O)NNS(=O)(=O)c1ccc(Cl)cc1	0.9%	-1.3%	3.2	u	14.7	3.4	-2.2
COc1ccc(S(=O)(=O)N2CCCCC2)cc1NC(=O)CSc1ncccn1	-0.6%	x	-1.8	-5.5	-5.7	-26.9	-4.6
O=C(/C=C/[C@H]1O[C@@H](n2cnc3c(NC(=O)c4ccccc4)ncnc32)[C@H](O)[C@@H]1O)NCCCN1CCCC1=O	1.5%	x	-1.3	x	-10.8	-8.0	-0.7
COc1ccc(CNC(=O)/C=C/c2ccccc2[N+](=O)[O-])cc1	9.9%	14.5%	-5.8	-0.3	-4.3	x	-17.2
COc1ccc(S(=O)(=O)N2CCN(C(=O)CCSc3ccccc3)CC2)cc1	0.4%	x	-3.7	-4.2	5.0	-9.5	-16.6
CNc1ccccc1C(=O)OCC(C)=O	-0.2%	6.2%&28.6%	-2.2	0.9	2.1	0.7	-0.6
O=S(=O)(c1ccccc1)c1cc(O)ccc1O	0.3%	-15.4%	u	-9.4	0.0	0.0	-0.5
O=C(COC(=O)Cn1cnc2ccccc21)Nc1cccc([N+](=O)[O-])c1	0.7%	7.8%	-0.8	25.6	7.6	-0.7	-6.9
O=C(CCS(=O)(=O)c1ccc(Cl)cc1)Nc1ccccc1Br	5.3%	7.4%	4.8	1.8	1.1	3.9	-2.1
Cc1nc(N)nc(SCc2ccc([N+](=O)[O-])cc2)c1N	0.0%	7.1%	9.5	19.0	-13.1	x	-7.4
O=C(NCCCc1ccccc1)C1CCN(S(=O)(=O)c2ccc(F)cc2)CC1	-0.4%	-5.7%	-0.4	-7.7	7.3	6.6	-10.0
O=C(c1cccc(-c2cncc3nccn23)c1)N1CCOCC1	-1.1%	x	-4.8	x	0.3	2.8	-13.1
CCC(C)C(=O)Nc1ccc(S(=O)(=O)Nc2nccs2)cc1 (centres undefined)	-1.5%	14.6%	2.5	15.7	-5.6	x	-1.5
O=C(CSc1cccc[n+]1[O-])NC1CCCCC1	0.1%	x	-1.1	x	3.4	-23.8	-5.7
CCOC(=O)c1c(C)c(C(=O)N2CCCCCC2)c(C)n1CC	-9.1%[38.3 µM]	16.3%	-4.0	0.6	-8.7	-2.3	-8.4
COc1ccc(/C=N/NC(=O)c2cc(-c3ccc(C)cc3C)nc3ccccc23)cc1COC(C)=O	4.9%	22.5%	1.1	6.1	-0.5	7.8	-28.0
CNc1ccn(C2CCCO2)c(=O)n1 (centres undefined)	0.2%	9.7%	0.7	-7.8	-1.3	x	-10.2
C=CCC[C@@H](Cc1ccc(F)cc1)C(=O)OCCNC(=O)[C@@H](CC=C)CC(=O)N[C@H](CO)Cc1ccccc1	0.5%	x	-4.2	x	3.5	1.1	-0.9
Cc1sc2ncn(CC(=O)NCCCC(=O)N3CCC(C(N)=O)CC3)c(=O)c2c1C	-0.2%	14.6%	-1.8	u	-4.4	6.0	6.0
N/C(=N\OC(=O)CCn1cccc(C(F)(F)F)c1=O)c1ccc(OC(F)(F)F)cc1	-1.7%	1.3%	2.1	-10.2	-9.1	4.3	-1.3
O=C1C2=C(c3ccccc31)[N+](=O)C1CCCCC1N2[O-] (centres undefined)	1.9%	-13.9%	1.0	-6.3	-12.6	-0.9	-7.7
O=C(O)CC(SCC(=O)Nc1ccc(Br)cc1)C(=O)O (centres undefined)	-1.5%	0.8%	-4.9	21.2	0.8	3.4	-8.3
Fc1ccc(CCNc2ncnc3[nH]ncc23)cc1	0.5%	x	2.5	x	-1.4	12.4	4.3
COc1ccc(NC(=O)Cn2nnc(C(=O)NCCc3ccc(OC)c(OC)c3)c2N)cc1	3.4%	6.1%	1.0	0.1	-6.0	0.3	-6.7
O=C(CCCn1cnc([N+](=O)[O-])n1)Nc1ccc(F)c(Cl)c1	0.6%	-8.7%	-1.0	-9.5	-1.3	-0.5	-6.9
Cc1cc(/C=C2/C(=O)NN(c3ccccc3)C2=O)c(C)n1-c1ccc(O)cc1	1.1%	4.4%	0.2	1.0	-3.5	5.1	-25.4
Cc1cc(Cl)c(S(=O)(=O)NC(C)C)cc1OCC(N)=O	-0.3%	16.4%	-1.2	8.0	5.5	-3.4	-4.6

In the list so far, these contain a nitro group on carbon:
canonical_smiles	PINK1 expr mod	Sfp PPTase inh	D2 agonist	TRPV1 potentiator	Six1-Eya2 blk	CtBP-E1A inh	D2 PAM
COc1ccc(CNC(=O)/C=C/c2ccccc2[N+](=O)[O-])cc1	9.9%	14.5%	-5.8	-0.3	-4.3	x	-17.2
O=C(COC(=O)Cn1cnc2ccccc21)Nc1cccc([N+](=O)[O-])c1	0.7%	7.8%	-0.8	25.6	7.6	-0.7	-6.9
Cc1nc(N)nc(SCc2ccc([N+](=O)[O-])cc2)c1N	0.0%	7.1%	9.5	19.0	-13.1	x	-7.4
O=C(CCCn1cnc([N+](=O)[O-])n1)Nc1ccc(F)c(Cl)c1	0.6%	-8.7%	-1.0	-9.5	-1.3	-0.5	-6.9

Additional entries follow.
canonical_smiles	PINK1 expr mod	Sfp PPTase inh	D2 agonist	TRPV1 potentiator	Six1-Eya2 blk	CtBP-E1A inh	D2 PAM
CC1(C)C2CCC1(C)C(OC(=O)CCn1ccnc1)C2 (centres undefined)	-1.1%	11.8%	-3.8	-10.3	-10.7	-1.4	0.6
CCCN(CCO)Cc1ccc(F)c(Br)c1	3.6%[38.3 µM]	-20.4%	2.4	-14.4	7.9	3.7	-7.7
Cc1cccc(C)c1-n1nnnc1C1(C)CCC(=O)N1CCc1ccccc1F (centres undefined)	-0.5%	x	x	x	1.7	-1.1	x
COc1cc2c(cc1OC)C(C)N(Cc1ccc3c(c1)OCO3)CC2 (centres undefined)	3.5%	2.3%	-2.1	-6.7	-4.2	-0.6	-13.4
Cc1cnc(C=O)c2cccc([N+](=O)[O-])c12	-0.2%	x	0.0	x	-11.9	0.0	-13.5
CC(C)C(C(=O)NCC1CCCO1)N(C(=O)CNS(=O)(=O)c1ccccc1)C1CCCCC1 (centres undefined)	2.4%	16.4%	-3.2	u	-4.3	3.3	-6.9
CCN(CC(=O)Nc1c(F)cccc1F)C(=O)c1cccc(S(=O)(=O)N(C)c2ccccc2)c1	-4.5%	x	-0.3	-0.5	-2.6	-1.3	-69.3
N#CCSc1ccsc1C(=O)Nc1ccc(F)cc1	-10.8%[38.3 µM]	u	-2.3	10.4	14.5	44.5	-0.6
CC(C)n1c(=S)[nH]c2cc(Cl)ccc21	0.7%	79.4µM*	-6.2	-2.2	-6.5	x	-22.2
CC(=O)NNc1cc(C)nc(N)n1	1.1%	-8.6%	1.4	-0.6	3.0	0.9	2.9
CC(C)CCNC(=O)NC(=O)COC(=O)CCN=C1NS(=O)(=O)c2ccccc21	-0.6%	14.9%	-1.3	2.5	5.5	-4.0	-1.7
Cc1cc(S(=O)(=O)N2CCCC(C)C2)ccc1-n1cnnn1 (centres undefined)	3.3%	-7.1%	-12.6	-14.1	-3.7	1.5	-3.0
S=c1[nH]nc2ccc3ccccc3n12	-0.6%	x	-8.5	x	1.0	3.5	-17.1
O=C(N/N=C\c1ccncc1)c1ccccc1O	0.3%	0.5%	-8.7	-0.4	-3.1	-7.9	-8.4
CCc1ccc(NC(=O)CSc2nc(O)cc(=O)n2C2CCCC2)cc1	-1.2%	11.9%	-2.7	-3.1	13.7	-11.1	-22.1

Marked active in Sfp PPTase inh (from the list above):
canonical_smiles | PINK1 expr mod | Sfp PPTase inh | D2 agonist | Six1-Eya2 blk | CtBP-E1A inh | D2 PAM
CC(C)n1c(=S)[nH]c2cc(Cl)ccc21 | 0.7% | 79.4µM* | -6.2 | -6.5 | x | -22.2

More entries:
Values run as follows: PINK1 expr mod, Sfp PPTase inh, D2 agonist, TRPV1 potentiator, Six1-Eya2 blk, CtBP-E1A inh, D2 PAM
COc1cccc(OCC(=O)N2CCCc3ccccc32)c1
→ 4.0%, 6.9%, -0.8, -13.5, -1.6, 5.8, -1.4
c1ccn2cc(-c3ccc4c(c3)OCO4)cc2c1
→ 9.9%, 56.2µM*, -4.2, -12.9, -10.4, -2.5, -13.1
COc1cccc(N(CC(=O)NCC2CCCO2)C(=O)CNS(=O)(=O)c2ccccc2)c1 (centres undefined)
→ -0.4%, 14.7%, 3.5, -7.5, -0.6, -4.4, -1.8
O=C(CCC(=O)Nc1nnc(C2CCCCC2)s1)NCc1ccccc1
→ -0.3%, 23.8%, -4.4, -1.3, 0.0, x, -3.3
Cc1cc(Cl)ccc1NC(=O)CN1C(=O)C(=O)N(C2CCCC2)C1=O
→ -0.1%, x, 0.7, 2.1, 4.2, x, 0.5
COc1ccc(OCCn2cc(/C(N)=N/O)c3ccccc32)cc1
→ -4.4%[38.3 µM], 2.6%, 3.6, -10.1, -12.1, 9.6, 16.7
CC1CCCCN1S(=O)(=O)c1csc(C(N)=O)c1 (centres undefined)
→ 0.6%, 17.6%, 1.2, 13.6, 3.8, x, -1.7
O=C(Nc1c(-c2ccc3c(c2)OCO3)[nH][nH]c1=O)c1cnccn1
→ 1.5%, x, -5.0, x, -4.3, 0.2, -11.5
CC(/C=N\NC(=O)CN1CCN(Cc2ccccc2)CC1)=C\c1ccco1
→ -0.6%, -17.7%, -3.4, 1.4, -4.1, -10.1, -7.6
CCOC(=O)CSc1n[nH]c(NC(C)=O)n1
→ -0.4%, 3.5%, -0.2, -2.2, 3.7, x, -8.6

Screens as filed in PubChem.
